Screens as filed in PubChem.
KCNQ2 pot – KCNQ2 (rat) channel potentiation | CHO-K1 KCNQ2, FluxOR thallium flux fluorescence; hits give high values | B-score at 10 µM | 310,000 compounds, 0.54% hits | O88943;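 active means fluorescence ratio B-score at least 3 SD of library B-scores, with initial fluorescence B-score within 3 SD, cut at about 5.3 in these data; same plate scores as AID 2156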;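 further: B-score of peak minus minimum over baseline fluorescence ratio after K+ and Tl+ stimulus; positive B-score means potentiation of KCNQ2 with more thallium influx and brighter signal; only the inactives scoring about 0 or higher are listed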
Target sequence (O88943 whole entry, looked up): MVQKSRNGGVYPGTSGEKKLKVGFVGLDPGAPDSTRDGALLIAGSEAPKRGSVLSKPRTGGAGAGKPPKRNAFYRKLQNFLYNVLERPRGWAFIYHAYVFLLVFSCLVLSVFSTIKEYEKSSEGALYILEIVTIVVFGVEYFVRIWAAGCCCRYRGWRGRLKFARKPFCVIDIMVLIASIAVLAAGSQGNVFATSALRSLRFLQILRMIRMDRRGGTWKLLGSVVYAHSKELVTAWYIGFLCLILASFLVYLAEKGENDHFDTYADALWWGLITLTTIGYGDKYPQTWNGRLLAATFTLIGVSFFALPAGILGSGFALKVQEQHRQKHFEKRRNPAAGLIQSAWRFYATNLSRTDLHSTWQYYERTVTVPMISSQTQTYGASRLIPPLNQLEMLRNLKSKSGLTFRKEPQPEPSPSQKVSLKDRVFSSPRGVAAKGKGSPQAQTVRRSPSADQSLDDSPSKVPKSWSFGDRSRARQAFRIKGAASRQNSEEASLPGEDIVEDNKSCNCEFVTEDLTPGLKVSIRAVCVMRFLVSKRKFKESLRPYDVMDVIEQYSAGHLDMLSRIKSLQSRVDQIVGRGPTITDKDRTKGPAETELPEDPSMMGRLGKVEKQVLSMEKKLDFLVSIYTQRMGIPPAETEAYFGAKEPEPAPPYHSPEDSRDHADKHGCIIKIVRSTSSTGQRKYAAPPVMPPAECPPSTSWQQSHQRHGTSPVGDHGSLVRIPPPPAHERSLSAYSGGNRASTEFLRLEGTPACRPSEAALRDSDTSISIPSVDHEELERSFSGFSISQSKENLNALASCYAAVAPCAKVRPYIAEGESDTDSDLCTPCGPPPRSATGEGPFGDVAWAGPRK
KCNQ2 pot baseline – also measured in KCNQ2 pot; calls as there; B-score; compound at 10 µM; measured here: initial fluorescence intensity artifact check;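 brightness before thallium and not channel activity; 0 = typical well and far values either way flag optical interference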
* marks the source's active call; other numbers are inactive results. An excerpt; the hit share may differ from the screen's.

item	SMILES	KCNQ2 pot	KCNQ2 pot baseline
1	CS(=O)(=O)c1ccc2nc(NC(=O)C3C4C=CC(C4)C3C(=O)O)sc2c1 (stereo not drawn)	0.31	0.64
2	CC(NC(=O)c1ccccc1F)c1cccc2ccccc12 (stereo not drawn)	0.01	0.7
3	CCNc1nc(SC)nc(N(C#N)CC(=O)OC)n1	0.48	0.8
4	COc1ccc(Cc2nnc(SCC(=O)Nc3nc(C)cs3)o2)cc1	0.76	-0.13
5	COC(C/C=C/[C@H](O)[C@H](C)OCc1ccccc1)OC	0.34	0.67
6	CC(C)[C@H](NC(=O)N1CC(=O)Nc2ccccc21)C(=O)N1CCC[C@@H]1C(=O)O	3.53	-1.09
7	CCOC(=O)CCNC(=O)N1CCCC(CNS(=O)(=O)c2cccs2)C1 (stereo not drawn)	0.28	-0.01
8	Cc1c(Cl)cccc1NS(=O)(=O)c1c(C(=O)N2CCOCC2)c(C)n(C)c1C	0.39	2.81
9	N#C/C(=C\c1cccnc1)c1ccc(Br)cc1	0.84	-1.35
10	Cc1cccc(CN2CCNC2=O)c1	0.56	-0.45
11	Cc1c(N)cccc1-n1cnnn1	1.22	0.18
12	CCOC(=O)c1c(CN2CCCCC2)n(C)c2cc(Br)c(O)cc12	0.61	0.4
13	O=C(c1cc2cc([N+](=O)[O-])ccc2oc1=O)N1CCN(C2CCCCC2)CC1	0.81	-0.03
14	COC(=O)c1ccc(NC(=O)CCS(=O)(=O)c2ccc(C)cc2)cc1	0.57	-0.2
15	O=C(NCCN1CCN(C(=O)c2cccc([N+](=O)[O-])c2)CC1)C(=O)NCc1ccc(Cl)cc1	0.55	-0.05
16	NS(=O)(=O)c1ccc(CCNC(=O)COC(=O)CCSc2ccc(Cl)cc2)cc1	0.05	-2.17
17	Cc1cc(-n2c(C)cc(C(=O)CSc3nnnn3-c3ccccc3)c2C)no1	2.95	-2.37
18	Cc1noc(C)c1C(=O)N1CCc2ccccc2C1	1.59	1.07
19	O=C(CCS(=O)(=O)Cc1ccccc1F)N1CCc2ccccc2C1	0.82	-0.49
20	COc1ccc(C(=O)NCc2csc(C(C)C)n2)cc1OC1CCN(C(C)=O)CC1	0.08	0.56

Laid out differently: entries from further up.
14	COC(=O)c1ccc(NC(=O)CCS(=O)(=O)c2ccc(C)cc2)cc1
13	O=C(c1cc2cc([N+](=O)[O-])ccc2oc1=O)N1CCN(C2CCCCC2)CC1
12	CCOC(=O)c1c(CN2CCCCC2)n(C)c2cc(Br)c(O)cc12
16	NS(=O)(=O)c1ccc(CCNC(=O)COC(=O)CCSc2ccc(Cl)cc2)cc1
18	Cc1noc(C)c1C(=O)N1CCc2ccccc2C1
11	Cc1c(N)cccc1-n1cnnn1
entry no.	14	13	12	16	18	11
KCNQ2 pot	0.57	0.81	0.61	0.05	1.59	1.22
KCNQ2 pot baseline	-0.2	-0.03	0.4	-2.17	1.07	0.18

(next part)
item	SMILES	KCNQ2 pot	KCNQ2 pot baseline
21	Cc1nc(-c2cccc(Cl)c2)n[nH]1	0.66	0.09
22	CCOC(=O)C1CCCN(C(=O)c2ccc(Cl)cc2)C1 (stereo not drawn)	0.09	-0.95
23	COC(C/C=C/C(=O)[C@H](C)OCc1ccccc1)OC	0.05	-0.46
24	COc1ccc(CCNc2cc(C)nc3c(-c4ccc(Cl)cc4)cnn23)cc1OC	0.48	-0.94
25	CC(C)COc1ccc(-c2cc(C(=O)NN)[nH]n2)cc1	2.11	-0.17
26	COc1cccc(-c2nnc(NC(=O)c3ccco3)s2)c1	0.67	1.11
27	Cc1ccc2nsnc2c1NC(=O)c1sc2ccccc2c1Cl	0.74	-0.65
28	O=C(c1cccn(Cc2ccc(Cl)c(Cl)c2)c1=O)N1CCOCC1	1.4	-0.21
29	CC1CCN(c2ccc(-c3ccc(NC(=O)C(F)(F)F)cc3)nn2)CC1	0.87	-0.02
30	C=CCOC(=O)C1=C[C@@H](c2ccc(Br)cc2)C[C@@H](OCCCCO)O1	0.54	-0.27
31	CCOc1cc(/C=N/NC(=O)c2ccncc2)ccc1OC(=O)c1ccco1	0.21	-0.67
32	COc1cccc(CNC(=O)CCC2CCCN(C3CCOCC3)C2)c1 (stereo not drawn)	0.12	1.44
33	CCOc1cc(C(=O)NC(C)CC)cc(OCC)c1OCC (stereo not drawn)	0.35	0.77
34	CS(=O)(=O)N(C(=O)NC(=O)NC12CC3CC(CC(C3)C1)C2)C1CCCCC1	0.04	-0.08
35	O=C(C1CCN(S(=O)(=O)N2CCOCC2)CC1)N1CCN(c2ccccc2F)CC1	0.02	-0.83
36	Cc1cccc(C)c1OCC(O)Cn1c2ccccc2c2ccccc21 (stereo not drawn)	0.03	-1.82
37	COCCn1c(C)nc2oc3ccc(Br)cc3c(=O)c2c1=O	0.59	-0.13
38	Nn1cnnc1N/N=C/c1ccc(F)cc1	0.75	-0.05
39	Cc1ccc(S(=O)(=O)c2nnn3c2nc(N2CCC(C(N)=O)CC2)c2ccccc23)cc1C	0.8	-1.78
40	Cc1cc(C(F)(F)F)n(-c2nc(C(=O)NNS(=O)(=O)c3ccccc3[N+](=O)[O-])cs2)n1	1.04	-0.01
41	CN1CCN(C(=O)C2=C[C@@H](c3ccc(C(F)(F)F)cc3)C[C@@H](OCc3ccc(CO)cc3)O2)CC1	0.34	0.93
42	Cc1ccc(-c2nnc(SCC(=O)Nc3cccc(C(=O)N4CCOCC4)c3)n2C)cc1	0.52	-0.45
43	CCn1c(SCC(=O)N2c3ccccc3CCc3ccccc32)nnc1-c1ccc(OC)cc1	0.03	-0.37
44	Cc1nc(C(=O)Nc2ccc(Cl)cc2)sc1C1(C)CC(c2ccccc2)=NO1 (stereo not drawn)	0.01	0.04
45	Cc1cc(=O)oc2cc3c(cc12)OCCO3	0.14	0.28
46	COCCn1c(C)cc(C(=O)COC(=O)c2ccc(N3CCCC3=O)cc2)c1C	0.4	0
47	CSc1ccc(/C=N/NC(=O)C[n+]2ccccc2)cc1	2.23	-0.85
48	Oc1cccc2ccc[n+](CC(O)Cn3c4ccccc4c4ccccc43)c12 (stereo not drawn)	0.93	-0.88
49	COc1ccc(C(=O)NCC(c2ccc(F)cc2)N2CCOCC2)cc1S(=O)(=O)N1CCCC1 (stereo not drawn)	1.35	2.31
50	Cc1ccc(C(=O)Nc2cccc(C(=O)NCc3ccccc3)c2)o1	1.66	-0.7
51	Cn1cc(C=O)c2cc(S(=O)(=O)N3CCOCC3)ccc21	0.1	-1.49
52	O=C(Nc1cccc(S(=O)(=O)N2CCCCC2)c1)c1cccs1	4.98	0.02
53	Nn1c(SCC(=O)Nc2ccc3c(c2)OCCO3)nnc1-c1cccnc1	1.14	-2.14
54	O=C(CC12CC3CC(CC(C3)C1)C2)NCC(=O)N1CCCC1	1.25	1
55	CCOC(=O)c1sc2nc(N3CCOCC3)c3c(c2c1N)CC(C)(C)N(C)C3	0.05	-1.02
56	CC(=O)N1CCN(C(=S)Nc2ccc(SC(F)F)cc2)CC1	0.8	0.28
57	Cc1cccc(C)c1NC(=O)COn1nnc2ccc(C(F)(F)F)cc21	0.21	1.72
58	O=S(=O)(c1cc(Cl)sc1Cl)N1CCCC1	1.18	0.05
59	CCOc1ccc(-c2c(=O)n(OCc3nc4ccccc4[nH]3)c3ccccc3[n+]2[O-])cc1	0.45	-0.67
60	COc1ccc(CN2CCn3ncc(C(=O)Nc4ccccc4)c3C2=O)cc1	0.46	-2.76
61	CCc1ccc(N2CC(C(=O)Nc3nc4ccc(S(C)(=O)=O)cc4s3)CC2=O)cc1 (stereo not drawn)	0.01	0.39
62	COCCNC(=S)N/N=C(\C)c1ccccc1O	0.91	0.1
63	O=C(N/N=C/c1ccc([N+](=O)[O-])cc1)c1cc(C2CC2)[nH]n1	0.27	0.01
64	Cc1ccc2c(c1)N(CC(=O)NCCCN1CCN(C)CC1)C(=O)CO2	1.59	-0.01
65	O=C(Cn1cc(C(=O)c2ccco2)c2ccccc21)Nc1ccccc1F	3.33	3.05
66	CC(NC(=O)COC(=O)CNC(=O)c1ccc(-c2ccccc2)cc1)c1ccccc1 (stereo not drawn)	0.4	0.95
67	Cc1nnc(Nc2ccc(Cl)cc2)s1	0.03	0.15
68	Cc1cc(C)nc(/N=C(\N)Nc2ccc(C(C)C)cc2)n1	5.52*	-1.62*
69	CN(C)/C=C(/C(=O)c1ccc(Cl)cc1Cl)S(=O)(=O)c1ccc(Cl)cc1	0.01	-0.15
70	O=C(Cn1c(=O)n(-c2cccc(C(F)(F)F)c2)c(=O)c2sccc21)NCC1CCCO1 (stereo not drawn)	0.38	-0.26

Next results:
item	SMILES	KCNQ2 pot	KCNQ2 pot baseline
71	NS(=O)(=O)c1ccc(Cc2ncc(C(F)(F)F)cc2Cl)s1	1.16	-1.26
72	O=C(Nc1ccc(S(=O)(=O)N2CCOCC2)cc1)C1CCCCC1	1.52	1.45
73	COc1ccc(CNC(=O)c2cccnc2SC)cc1OC	0.17	2.05
74	COc1ccccc1CNC(=O)Cn1ccc2cc(S(=O)(=O)N3CCCC3)ccc21	0.53	1.86
75	Cc1cc(-c2csc(NC(=O)c3ccc(=O)[nH]c3)n2)c(C)n1Cc1ccccc1	1.04	-0.26
76	Cn1c(NC(=O)/C=C/c2ccccc2)cc(=O)n(C)c1=O	1.66	1.95
77	COc1ccc(OCC(=O)N2CCN(C(=O)c3ccco3)CC2)cc1	0.02	-2.3
78	COC(=O)[C@H](C)NC(=O)Nc1ccc(S(N)(=O)=O)cc1	0.02	-0.71
79	CSc1nc(N2CCOCC2)c2c(c1C#N)CC(C)(C)OC2	0.12	1.07
80	Cc1ccc(-c2nc(-c3ccccn3)no2)cc1[N+](=O)[O-]	1.32	-0.01
81	COc1ccc(/C=C2/Sc3ccc(C(=O)NCCCN4CCOCC4)cc3NC2=O)cc1OC	1.31	-1.24
82	COCCn1c(N)c(N(Cc2ccccc2)C(=O)c2cc3ccccc3o2)c(=O)[nH]c1=O	0.37	-0.21
83	O=C(Nc1ncc([N+](=O)[O-])s1)C1COc2ccccc2O1 (stereo not drawn)	0.6	1.86
84	CCCn1c(SCC(=O)Nc2nc(C)c(C(=O)OC)s2)nnc1C(C)C	1.65	-1.96
85	O=C(CSc1n[nH]c(-c2ccccc2)n1)Nc1ccccc1O	0.75	-0.25
86	COC(=O)Cc1ccc(NC(=S)NCc2ccc(Cl)cc2)cc1	1.62	-0.63
87	COc1ccc2c(c1)CC/C2=N\OC(=O)c1cccc(C)c1	2.11	-1.29
88	Cc1c(NC(=O)CSc2nnc(Nc3ccccc3)s2)c(=O)n(-c2ccccc2)n1C	0.03	1.01
89	Cc1cc(N2CCN(Cc3cn(C)nc3-c3ccccc3F)CC2)cc(C)n1	0.83	-1.26
90	COc1ccc(Cc2noc(CN(C)CC3CCN(Cc4ccccc4)CC3)n2)cc1OC	0.22	-0.48
91	COc1ccc(C(CNC(=O)c2ccc(NS(=O)(=O)c3ccc(F)c(C)c3)cc2)N(C)C)cc1 (stereo not drawn)	0.01	-1.31
92	Cc1ccn(C)c(=N)c1	0.99	-0.35
93	C=CCN1CCc2c(cc(O)c(O)c2Br)[C@@H](c2ccccc2)C1	1.34	0.01
94	CCN(CC)S(=O)(=O)c1ccc(C)c(NC(=O)COC(=O)c2ccc(C)c(S(=O)(=O)N3CCOCC3)c2)c1	2.2	-0.06
95	CCCCNC(=S)Nc1cccc(C(C)=O)c1	1.24	-2.15
96	COc1ccc(S(=O)(=O)NCCc2ccccc2)c2cccnc12	0.7	-1.98
97	CCOC(=O)C1CCN(c2ncnc3cc(OC)c(OC)cc23)CC1	1.92	-3.04
98	COC(=O)C(C)(C(=O)OC)c1ccc([N+](=O)[O-])cn1	0.69	0
99	CNS(=O)(=O)c1cccc(C(=O)OCc2cc(C(C)=O)ccc2OC)c1	0.72	-2
100	Nc1cccc([N+](=O)[O-])c1	1.21	0.36
101	CC(=O)Nc1nc(C(=O)O)cs1	0.73	0.79
102	CCCCn1c(SCC(=O)Nc2nnc(C)s2)nc2c1c(=O)n(C)c(=O)n2C	0.78	-0.77
103	Cc1ccc(C(=O)N/C(=C\c2ccc3c(c2)OCO3)C(=O)Nc2ccc(C(=O)O)cc2)cc1	0.94	0.2
104	Cc1cccc(N2CCN(C(=O)c3ccccn3)CC2C)c1 (stereo not drawn)	2.04	-0.29
105	CCn1cc(C(=O)NCC2CCCO2)c2cc(OC)c(OC)cc2c1=O (stereo not drawn)	0.76	-0.45
106	O=C(O)C1CCCN1S(=O)(=O)c1ccc(Cl)cc1 (stereo not drawn)	3.6	-2.39
107	CN(C)CCCn1c(-c2ccccc2)nc(=S)c2c1CCCC2	0.15	-0.04
108	O=C(N/C=N/O)C1=NOC(CNc2ncc(C(F)(F)F)cc2Cl)C1 (stereo not drawn)	0.86	0.77
109	COc1cc(NC(=O)COC(=O)CC(C)(C)C)c(C)cc1[N+](=O)[O-]	2.92	-0.77
110	CCc1c(C)nc2cc(-c3ccccc3)[nH]n2c1=O	0.45	1.17
111	Cc1ccc(NC(=O)COc2nsnc2N2CCOCC2)cc1Cl	3.32	-0.58
112	N#Cc1c(NC(=O)c2nc3ncccn3n2)sc2c1CCCCC2	0.26	-0.84
113	O=C(COc1ccccc1[N+](=O)[O-])Nc1ccc(CN2CCOCC2)cc1	1.46	-1.4
114	Cn1c(CNC(=O)Cc2ccc3c(c2)OCO3)nnc1SCc1ccccc1	0.76	-0.8
115	Cc1oc(-c2cccs2)nc1CS(=O)CC(=O)NCc1ccc2c(c1)OCO2 (stereo not drawn)	1.67	-0.33
116	COCc1cc(=O)[nH]c(SC)n1	1.16	0.27
117	Cc1ccc(C)c(Cn2c3ccccc3c3cnn(CC(=O)NCCCN4CCOCC4)c(=O)c32)c1	1.83	0.24
118	CC1CN(C)C(C)C/C1=N/Oc1ccccc1[N+](=O)[O-] (stereo not drawn)	0.11	-0.67
119	COc1nc(N)c(C#N)c(-c2ccc(N(C)CCC#N)cc2)c1C#N	0.67	-1.03
